High-throughput results (PubChem)
NS1 function inh: blocks influenza NS1 protein function | S. cerevisiae slowed by influenza A NS1, growth recovery by OD600 | Potency, µM (doses to about 46.1 µM), for inactives: at the highest dose activity, positive = more growth | actives 0.4% (n = 270,000); active means well fitted rising curve with a large enough effect; inconclusive means small, poorly fitted or top-dose-only effect; inactive means no such curve, though single readings can be large or run the other way; note: nearly all actives have a fitted effect of over 50% in size
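Compounds were scored for reversing the slow growth caused by influenza A NS1 in S. cerevisiae, measured by optical density at 600 nm. Assay medium contained 2% galactose at pH 6.0; NS1-free yeast of the same strain were the positive control.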
LASV entry inh: inhibitors of Lassa virus binding or cell entry; Lassa virus pseudotype entry inhibition, cell reporter; control for the full effect not named in the record; Potency, µM (titrated, usually from 37.9 µM), for the others: at the top dose activity change, negative = inhibition, actives largely listed as inhibitors; actives 1.2% (n = 300,000); active means well fitted inhibition curve with a large enough effect; inconclusive means small, poorly fitted or top-dose-only effect, or effect the other way; inactive means flat fitted curve, though single readings scatter; tested in HEK293 cells; note: % is set by controls: 0 for no effect and ±100 for the full control effect; nearly all actives have a fitted effect of over 50% in size; luciferase read-out
Cruzain inh Det: blocks cruzain activity in presence of Triton detergent. actives 0.43% (n = 200,000). purified cruzain, Z-FR-AMC fluorescence, 0.01% Triton. AID 1478. P25779. Potency, µM, for the others: max response, negative = inhibition, usual class: inhibitors;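 note: plate controls were neutral wells for no effect and buffer without enzyme for full effect; nearly all actives have a fitted effect of over 40% in size; top concentration of the series not given in the record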
Target sequence (P25779 123-467 limits assumed): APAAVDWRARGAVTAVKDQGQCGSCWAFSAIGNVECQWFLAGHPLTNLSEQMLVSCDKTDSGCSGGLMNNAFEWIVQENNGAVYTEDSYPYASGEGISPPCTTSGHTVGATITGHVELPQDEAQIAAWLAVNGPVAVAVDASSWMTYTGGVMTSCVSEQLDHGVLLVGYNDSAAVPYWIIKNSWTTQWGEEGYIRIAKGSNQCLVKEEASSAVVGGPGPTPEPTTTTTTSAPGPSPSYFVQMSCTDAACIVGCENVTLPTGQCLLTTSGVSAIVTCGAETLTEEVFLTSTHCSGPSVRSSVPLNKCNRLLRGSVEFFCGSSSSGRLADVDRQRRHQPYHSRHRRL
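Cruzain (1.5 nM) preincubated 15 min at RT with compound in 100 mM sodium acetate pH 5.5, 5 mM DTT, 0.01% Triton X-100. Reaction started with 2 uM Z-FR-AMC; AMC fluorescence (ex 360/em 450 nm) change over 60 s gave rate.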
SARS PLP yeast: SARS-CoV PLP inhibition in yeast; S. cerevisiae expressing SARS-CoV PLpro, growth rescue; control for the full effect not named in the record; Potency, µM (highest dose often 32.9 µM), inactives show at the top dose activity, positive = growth rescue; actives 0.19% (n = 330,000); active means well fitted rising curve with a large enough effect; inconclusive means small, poorly fitted or top-dose-only effect; inactive means no such curve, though single readings can be large or run the other way; note: 0% is about no effect; nearly all actives have a fitted effect of over 55% in size; growth read by luminescence after 48 h
RE007 growth inh: less growth of the S. pombe RE007 Vpr strain; S. pombe RE007 Vpr strain, BacTiter-Glo ATP luminescence, 24 h; control for the full effect not named in the record; actives 0.21% (n = 360,000); Potency, µM (top dose mostly 92.2 µM), for the others: at the top dose activity change, negative = less growth; active = well fitted falling curve with a large enough effect; inconclusive = small, poorly fitted or top-dose-only effect; inactive = no such curve, though single readings can be large or run the other way;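 note: % is set by controls: 0 for no effect and ±100 for the full control effect; nearly all actives have a fitted effect of over 50% in size; the assay follows cell death caused by Vpr and the record does not say whether a fall means rescue or toxicity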
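Fission yeast strain RE007, carrying one chromosomally integrated HIV-1 vpr copy, was seeded at OD 0.01 in PMG+AL medium with 23 nL pinned compound. After 24 h at 30 °C and 99% humidity, viability was read by BacTiter-Glo luminescence.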
MARV entry inh: blocks Marburg virus binding to or entry into cells. Marburg virus pseudotyped entry inhibition, cell reporter; control for the full effect not named in the record; about a third of the inactives were read at about 46 µM. Potency, µM (titrated, usually from 37.8 µM), inactives show at the highest dose activity change, negative = inhibition, hits mostly inhibitors. actives 1.8% (n = 300,000). AID 540276; active = well fitted inhibition curve with a large enough effect; inconclusive = small, poorly fitted or top-dose-only effect, or effect the other way; inactive = flat fitted curve, though single readings scatter; tested in HEK293 cells; about a fifth of its hits are not listed in these tables; note: % is set by controls: 0 for no effect and ±100 for the full control effect; luciferase read-out
Cruzain inh noDet: inhibitors of Trypanosoma cruzi cruzain without detergent; Potency, µM, without a hit: max response, negative = inhibition, actives largely listed as inhibitors; P25779; AID 1476; purified cruzain, Z-FR-AMC fluorescence, no detergent; actives 2.3% (n = 200,000);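 note: plate controls were enzyme without inhibitor for no effect and buffer without enzyme for full effect; nearly all actives have a fitted effect of over 40% in size; top concentration of the series not given in the record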
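Detergent-free condition (0.00005% Triton X-100) in acetate buffer pH 5.5 with DTT. 1.5 nM enzyme and compound were pre-mixed 15 min, then 2 uM Z-FR-AMC substrate added; reaction progress from fluorescence change between first and third reads (60 s).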
StopGo reporter: FMDV 2A StopGo reporter, luciferase signal. human cells with a luciferase reporter of 2A StopGo recoding; control for the full effect not named in the record. Potency, µM (top dose mostly 57.9 µM), for inactives: at the top dose signal change, negative = less light. actives 1.2% (n = 410,000). AID 1159524; active = well fitted falling curve with a large enough effect; inconclusive = small, poorly fitted or top-dose-only effect; inactive = no such curve, though single readings can be large or run the other way; tested in HEK293T cells; note: % is set by controls: 0 for no effect and ±100 for the full control effect; nearly all actives have a fitted effect of over 45% in size; luciferase light after 4 h
The depositor's hits bear a star; ? = inconclusive; . = no result given; [ ] = remark or other dose. Unless noted, calls come from the whole dose curve; as a rule, active = well fitted curve in the direction sought with a large enough effect; inconclusive = small, poorly fitted or top-dose-only effect, or another doubt; inactive = no such curve, though single readings can be large; an effect the other way counts as inactive or inconclusive. Potency is the fitted concentration of half-maximal effect.

Values run as follows: NS1 function inh	LASV entry inh	Cruzain inh Det	SARS PLP yeast	RE007 growth inh	MARV entry inh	Cruzain inh noDet	StopGo reporter
- O=C1C2C3C=CC(C4CC34)C2C(=O)N1/N=C/c1ccc(-c2cccc([N+](=O)[O-])c2)o1 (stereo not given)
  -12%	-22%	-8.1%	-25%	-22%	?	25µM*	?
- CC1=C(C)SC(=C(C#N)c2nnc(N3CCOCC3)n2-c2ccccc2)S1
  -4%	-4%	2.1%	6%	-2%	-1%	15%	.
- Cc1cc(SCC(=O)Nc2ccc(C(F)(F)F)cc2)nc(=O)[nH]1
  .	1%[46.1 µM]	-1.4%	.	.	.	-5%	?
- Cc1ccc(NC(=O)C2CC(=O)n3ncnc3N2)cc1C (stereo not given)
  .	-9%	.	0%	1%	?	.	-1%
- COc1ccc(C=O)cc1OC(=O)C1(C)Cc2ccccc2C(=O)O1 (stereo not given)
  .	13%	.	-1%	-14%	1%[46.1 µM]	.	-12%
- CCN1CCN(CCCNC(=O)Cn2cc3c(n2)CCCC3)CC1
  7%	.	-2.3%	8%	-4%	.	5%	-22%
- O=C(Nc1nc2c(s1)C(=O)CCC2)c1ccccc1
  -62%	?	-5.6%	-15%	?	?	-5%	-40%
- CCC(CO)NC(=O)c1ccccc1C(F)(F)F (stereo not given)
  -1%	.	.	0%	21%	.	.	-10%
- O=C(c1ccco1)N1CCN(C(=O)c2oc(=O)c3ccccc3c2-c2ccccc2)CC1
  -26%	.	-1.2%	-1%	6%	0%	-4%	-21%
- COCCOC(=O)C1=C(C)NC2=C(C(=O)CCC2)C1c1ccc2c(c1)OCO2 (stereo not given)
  5%	-3%	9.3%	2%	10%	-16%	-3%	.
- CC(SCc1ccccc1)C(=O)Nc1ccccc1 (stereo not given)
  11%	.	.	-1%	6%	.	.	11%
- COc1ccc(C(=O)N2CCN(CCNC(=O)C(=O)Nc3ccc(F)cc3)CC2)cc1
  5%	-1%	.	-2%	-7%	14%[46.1 µM]	.	19%
- CCN1CCN(C(c2cccs2)C(C)NS(=O)(=O)c2ccc(Br)cc2)CC1 (stereo not given)
  -10%	-25%	1.6%	1%	-15%	-28%	0%	17%
- CC(C)Oc1ccc(-c2nc3c(C#N)c[nH]n3c2NC2CCCCC2)cc1
  .	-3%[46.1 µM]	-4.9%	.	.	2%[46.1 µM]	0%	-4%
- NS(=O)(=O)c1ccc(NC(=O)CSc2cn[nH]n2)cc1
  6%	7%[46.1 µM]	.	-2%	8%	27%[46.1 µM]	.	16%
- O=CNC1CCCc2c1[nH]c1ccc(Cl)cc21 (stereo not given)
  -45%	?	-4.1%	-13%	36%	?	1%	-23%
- CCc1cc(=O)oc2cc(OCC(=O)NCCCN3CCOCC3)c(Cl)cc12
  5%	.	.	0%	2%	.	.	-5%
- CCCC(C(=O)NC(C)(C)C)N(CC1CCCO1)C(=O)CNS(=O)(=O)c1ccc(F)cc1 (stereo not given)
  8%	6%[46.1 µM]	.	-2%	-5%	6%[46.1 µM]	.	21%
- Cc1ccccc1CS(=O)(=O)c1ccc(C(=O)N2CCC(C)CC2)cc1[N+](=O)[O-]
  .	14%	.	2%	-8%	21%[46.1 µM]	.	?
- COc1ccc(/C=N/n2cnnc2SCc2ccc(OC)cc2)cc1
  -14%	2.5µM*	-0.2%	-6%	0%	-13%	64%	4%
- COCCn1c(SCC(=O)N2CCCCCC2)nc2c([nH]c3ccccc32)c1=O
  9%	-21%	.	0%	-5%	-6%	.	6%
- CCc1ccc2occ(CC(=O)Nc3ccc(OC)c(Cl)c3)c2c1
  .	9%[46.1 µM]	-7.2%	.	.	?	-9%	28%
- Cc1ccc2c(C)c(C(=O)NCC(C)(C)N3CCOCC3)oc2c1C
  -2%	.	.	-1%	3%	.	.	-27%
- CCOc1cccc(C(=O)Nc2cccnc2)c1
  -57%	3%	2.5%	-2%	-17%	18%	2%	7%
- COc1cccc(-n2c(Cc3cc(=O)[nH]c(=O)[nH]3)nnc2SCC(=O)N2CCCCC2)c1
  9%	.	8.1%	-5%	-8%	.	1%	-12%
- Cc1ccc(NC(=O)CN2CCC(NC(=O)Cc3ccccc3)CC2)c(C)c1
  10%	2%	0.9%	-5%	-1%	23%	-9%	-29%
- O=C(c1ccc(F)cc1)C1CCN(Cc2cn[nH]c2-c2ccc(F)cc2)CC1
  -1%	2%[46.1 µM]	.	1%	-5%	?	.	-10%
- Cc1ccc(-n2c(SCC(N)=O)nnc2-c2cccnc2)c(C)c1
  -6%	0%	-1.9%	3%	8%	21%	-4%	-21%
- COc1ccccc1-c1cc(C(=O)N2CCCCC2C)no1 (stereo not given)
  .	5%[46.1 µM]	-5.1%	.	.	7%[46.1 µM]	10%	12%
- Cc1ccccc1-n1c(C)n[nH]c1=S
  6%	2%	1.7%	0%	2%	?	-8%	.
- CC(C)C(NC(=O)Nc1ccccc1)C(=O)Nc1cccc(S(=O)(=O)N(C)C)c1 (stereo not given)
  13%	.	.	.	2%	?	.	33%[activator]
- COC(=O)c1ccc(NCCc2csc(-c3ccc(C)cc3)n2)c([N+](=O)[O-])c1
  -2%	2%	-5.8%	2%	-3%[3.69 µM]	4%	-8%	-19%
- CCCCc1nn(-c2cc(Cl)ccc2OC)c2c1C(=O)CCC2
  -10%	.	2.9%	-14%	17%	.	-4%	-22%
- CCOc1cc2sc(N3CCC(C(=O)Nc4cc(C)cc(C)c4)CC3)nc2cc1Br
  .	.	0.9%	.	.	6%[46.1 µM]	1%	-3%
- O=S(=O)(c1ccccc1)c1nc(-c2ccco2)oc1NCc1cccnc1
  13%	1%	-5.5%	?	2%	5%	-12%	9%
- O=c1ccc(Oc2nc(N3CCOCC3)nc(N3CCOCC3)n2)nn1-c1ccccc1
  -2%	-16%	5.6%	-8%	-11%	-3%	15%	-2%
- COc1ccc(C[C@H]2CN3C(=NC[C@H]3C)N2CCNC(=O)CCC2CCCCC2)cc1
  1%	.	.	1%	-8%	.	.	1%
- CCOC(=O)C1=C(N)Oc2c(oc(CO)cc2=O)C1c1ccccc1 (stereo not given)
  .	-14%	.	-2%	3%	-5%	.	-8%
- Cc1ccc(NC(=O)CCC(=O)N2Cc3ccccc3Oc3ncccc32)cc1F
  .	-2%[46.1 µM]	-5.5%	.	.	.	-16%	-13%
- O=S(=O)(NCC1CCCO1)c1ccccc1F (stereo not given)
  7%	13%	.	0%	26%	2%[46.1 µM]	.	22%
- COc1ccc(Oc2cccc(Cl)c2CNC(=O)CCC(=O)O)cc1
  5%	4%	.	1%	0%	-4%	.	1%
- O=C1CC2CS(=O)(=O)CC2N1c1ccc(Oc2ccccc2)cc1 (stereo not given)
  0%	-12%	0.7%	3%	-2%	-4%	6%	-22%
- O=C1CC(c2ccc(Cl)cc2)Oc2ccc(Cl)cc21 (stereo not given)
  .	-16%[46.1 µM]	.	.	1%	3%[46.1 µM]	.	-22%
- Cc1ccc(CN2CCN(Cc3ccc(C)s3)CC2CCO)cc1 (stereo not given)
  0%	13%	.	0%	-9%	?	.	-20%
- CCOc1ccccc1NC(=O)C1C2CCC(O2)C1C(=O)O (stereo not given)
  -7%	?	.	-6%	-9%	-21%[46.1 µM]	.	?
- CN(C)/C=C(\C#N)C(=O)Nc1ccc(F)cc1
  9%	-1%	2.3%	2%	?	?	-8%	26%
- CN(C)C=NC(=O)c1cc(C(=O)c2ccccc2Cl)c[nH]1
  3%	10%	.	0%	4%	3%[46.1 µM]	.	-10%
- CCOC(=O)C1=C(C)N=C2SC(C)C(=O)N2C1c1ccc(OCC)c(OCC)c1 (stereo not given)
  15%	-12%	0.0%	0%	19%	-7%	?	-12%
- C=CCn1c(=O)c(C=Nc2cccc([N+](=O)[O-])c2)c(O)n(CCCC)c1=O
  23%	-15%	-2.9%	1%	-3%	-2%	-4%	-17%
- Cc1cccc(Nc2nnc(SCC(=O)c3ccc(Br)s3)s2)c1C
  ?	-12%	-10%	-9%	5%	-11%	?	?
- O=C(CCCc1ccccc1)NC1CC1
  11%	1%	-5.2%	1%	.	?	1%	11%
- O=C(/C=C/c1ccccc1[N+](=O)[O-])NCCCN1CCCC1=O
  1%	10%[46.1 µM]	.	-5%	6%	7%[46.1 µM]	.	7%
- O=C(CCCn1c(=O)c2cccn2c2ccccc21)NCc1ccccc1Br
  .	19%[46.1 µM]	-1.9%	.	.	.	-5%	-20%
- Cc1ccccc1NC(=O)c1ccc(C)c(S(=O)(=O)Nc2ccccn2)c1
  21%	0%	9.1%	-12%	-6%	0%	-3%	21%
- Cc1ccc(NC(=O)C2CC(=O)NC(Nc3cccc(C)c3)=N2)cc1 (stereo not given)
  2%	-3%	-0.4%	-1%	-8%	-1%	3%	-8%
- CCN1CCN(S(=O)(=O)c2ccc(S(=O)(=O)NCC3CCCO3)cc2)CC1 (stereo not given)
  -6%	2%	1.9%	0%	-8%	3%	7%	.
- COC(=O)c1ccc(NC(=S)NCCc2cccc(C)c2)cc1
  -11%	8%	-7.8%	-6%	-14%	-24%	-4%	-12%
- Cc1cc(N2C(=O)C(O)=C(C(=O)c3ccc(C)o3)C2c2cccc(Oc3ccccc3)c2)no1 (stereo not given)
  26%	7%	.	3%	-3%	-8%[46.1 µM]	.	-5%
- Cc1ccc(NC(=S)NCCCN2CCOCC2)cc1C
  9%	.	.	-2%	-8%	.	.	-7%
